StopGo reporter = FMDV 2A StopGo reporter, luciferase signal; Potency, µM (series often up to 57.9 µM), inactives show top-dose signal change, negative = less light; human cells with a luciferase reporter of 2A StopGo recoding; control for the full effect not named in the record; 410,000 compounds, 1.2% hits; AID 1159524; active = well fitted falling curve with a large enough effect; inconclusive = small, poorly fitted or top-dose-only effect; inactive = no such curve, though single readings can be large or run the other way; tested in HEK293T cells; further: on the % scale 0 is the no-effect control and ±100 the full control effect; nearly all actives have a fitted effect of over 45% in size; luciferase light after 4 h
Lassa entry inh = blocks Lassa virus binding to or entry into cells. Lassa virus pseudotype entry inhibition, cell reporter; control for the full effect not named in the record. Potency, µM (titrated, usually from 37.9 µM), without a hit: top-dose activity change, negative = inhibition, hits mostly inhibitors. 300,000 compounds, 1.2% hits. AID 540256; active means well fitted inhibition curve with a large enough effect; inconclusive means small, poorly fitted or top-dose-only effect, or effect the other way; inactive means flat fitted curve, though single readings scatter; tested in HEK293 cells; further: on the % scale 0 is the no-effect control and ±100 the full control effect; nearly all actives have a fitted effect of over 50% in size; luciferase read-out
RE007 growth inh = less growth of the S. pombe RE007 Vpr strain. S. pombe RE007 Vpr strain, BacTiter-Glo ATP luminescence, 24 h; control for the full effect not named in the record. Potency, µM (doses to about 92.2 µM), inactives show top-dose activity change, negative = less growth. 360,000 compounds, 0.21% hits. AID 651644; active = well fitted falling curve with a large enough effect; inconclusive = small, poorly fitted or top-dose-only effect; inactive = no such curve, though single readings can be large or run the other way;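 further: on the % scale 0 is the no-effect control and ±100 the full control effect; nearly all actives have a fitted effect of over 50% in size; the assay follows cell death caused by Vpr and the record does not say whether a fall means rescue or toxicity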
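Fission yeast RE007 carrying one integrated HIV-1 vpr copy, seeded at OD 0.01 in PMG+AL medium with 23 nL pinned compound. Grown 24 h at 30 degrees; viability read by BacTiter-Glo luminescence after 5 min.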
NS1 function inh = inhibitors of influenza NS1 protein function; S. cerevisiae slowed by influenza A NS1, growth recovery by OD600; Potency, µM (highest dose often 46.1 µM), for inactives: top-dose activity, positive = more growth; 270,000 compounds, 0.4% hits; AID 2326; active means well fitted rising curve with a large enough effect; inconclusive means small, poorly fitted or top-dose-only effect; inactive means no such curve, though single readings can be large or run the other way; further: nearly all actives have a fitted effect of over 50% in size
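Recovery from NS1-induced slow growth read by OD600 in budding yeast switched to galactose assay medium (pH 6.0, -URA) at 1:100 dilution. Compound 23 nl per well; the matching strain lacking NS1 serves as control.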
Cruzain inh noDet = blocks cruzain activity in detergent-free assay; P25779; purified cruzain, Z-FR-AMC fluorescence, no detergent; Potency, µM, without a hit: max response, negative = inhibition, hits mostly inhibitors; 200,000 compounds, 2.3% hits;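 further: plate controls were enzyme without inhibitor for no effect and buffer without enzyme for full effect; nearly all actives have a fitted effect of over 40% in size; top concentration of the series not given in the record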
Target sequence (P25779 123-467 limits assumed): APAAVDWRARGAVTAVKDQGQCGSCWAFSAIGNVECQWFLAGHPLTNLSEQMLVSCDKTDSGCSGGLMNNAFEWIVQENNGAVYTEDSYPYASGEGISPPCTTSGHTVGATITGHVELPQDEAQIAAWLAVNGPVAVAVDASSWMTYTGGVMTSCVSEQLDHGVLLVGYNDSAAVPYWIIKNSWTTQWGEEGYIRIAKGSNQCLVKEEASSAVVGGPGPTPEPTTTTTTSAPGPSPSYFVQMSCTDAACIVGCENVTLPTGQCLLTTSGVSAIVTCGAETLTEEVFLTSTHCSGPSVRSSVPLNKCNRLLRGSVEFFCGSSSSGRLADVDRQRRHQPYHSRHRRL
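Purified cruzain at 1.5 nM, pre-incubated 15 min with compound at room temperature in 100 mM sodium acetate pH 5.5, 5 mM DTT, 0.00005% Triton X-100. Reaction started with 2 uM Z-FR-AMC; AMC fluorescence increase over 60 s gives rate.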
SARS PLpro yeast = inhibitors of SARS-CoV papain-like protease in yeast. S. cerevisiae expressing SARS-CoV PLpro, growth rescue; control for the full effect not named in the record. Potency, µM (titrated, usually from 32.9 µM), without a hit: top-dose activity, positive = growth rescue. 330,000 compounds, 0.19% hits; active means well fitted rising curve with a large enough effect; inconclusive means small, poorly fitted or top-dose-only effect; inactive means no such curve, though single readings can be large or run the other way; further: 0% is about no effect; nearly all actives have a fitted effect of over 55% in size; growth read by luminescence after 48 h
Cruzain inh Det = inhibitors of Trypanosoma cruzi cruzain with detergent; P25779; purified cruzain, Z-FR-AMC fluorescence, 0.01% Triton; Potency, µM, for the others: max response, negative = inhibition, actives largely listed as inhibitors; 200,000 compounds, 0.43% hits;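 further: plate controls were neutral wells for no effect and buffer without enzyme for full effect; nearly all actives have a fitted effect of over 40% in size; top concentration of the series not given in the record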
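Detergent-containing run (0.01% Triton X-100) in acetate buffer pH 5.5 with 5 mM DTT: enzyme at 1.5 nM final, 15 min compound preincubation at room temperature, then 2 uM Z-FR-AMC substrate. Activity taken as 60 s fluorescence increase at 360/450 nm.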
MARV entry inh = inhibitors of Marburg virus binding or cell entry; Marburg virus pseudotyped entry inhibition, cell reporter; control for the full effect not named in the record; about a third of the inactives were read at about 46 µM; Potency, µM (top dose mostly 37.8 µM), inactives show at the highest dose activity change, negative = inhibition, actives largely listed as inhibitors; 300,000 compounds, 1.8% hits; AID 540276; active = well fitted inhibition curve with a large enough effect; inconclusive = small, poorly fitted or top-dose-only effect, or effect the other way; inactive = flat fitted curve, though single readings scatter; tested in HEK293 cells; about a fifth of its hits are not listed in these tables; further: on the % scale 0 is the no-effect control and ±100 the full control effect; luciferase read-out
* marks the source's active call; other numbers are inactive results; ? = inconclusive; . = no result given; & = joins results of further samples; [ ] = remark or other dose. Unless noted, the call rests on the fitted dose curve; in most records, active means well fitted curve in the direction sought with a large enough effect; inconclusive means small, poorly fitted or top-dose-only effect, or another doubt; inactive means no such curve, though single readings can be large; an effect the other way counts as inactive or inconclusive. Potency means the concentration at half of the fitted maximal effect.

SMILES	StopGo reporter	Lassa entry inh	RE007 growth inh	NS1 function inh	Cruzain inh noDet	SARS PLpro yeast	Cruzain inh Det	MARV entry inh
C=CCCC(=O)Nc1nc(C)c(-c2csc(Nc3cc(OC)ccc3OC)n2)s1	-20%	.	2%	17%	?	-6%	-0.6%	.
CCC(=O)N/C(=N/c1nc(C)cc(C)n1)Nc1ccc(C)cc1	-17%	.	4%	-1%	.	-2%	.	.
CCc1cccc2c(C(=O)COC(=O)c3cnc(C)cn3)c[nH]c12	-7%	21%	26%	.	.	-4%	.	?
Nc1ccccc1C(=O)OCCOc1ccccc1	-31%	?	-12%	-34%	-7%	-7%	-5.6%	10µM*
O=C(CSc1ccccn1)Nc1cccc2ccccc12	36%[activator]	.	0%	.	.	-1%	.	10%[46.1 µM]
CCC(=O)N1c2ccc(S(=O)(=O)CCC(=O)N3CCN(c4ccccc4)CC3)cc2CC1C (configuration not stated)	-26%	-2%	1%	-12%	?	?	3.2%	6%
COc1ccc(NS(=O)(=O)c2ccc(F)c(Cl)c2)cn1	7%	?	1%	-12%	.	0%	.	-22%[46.1 µM]
C/C(=N\NC(=O)c1ccn(C)n1)c1ccco1	-2%	?	6%	-1%	.	-2%	.	-3%[46.1 µM]
Cc1noc(C)c1CSCC(=O)Nc1cc(Cl)ccc1N1CCOCC1	-18%	1%	-12%	-9%	.	-3%	.	-13%
O=C(Nc1nncs1)c1cc(-c2ccco2)nc2ccccc12	-20%	6%	3%	.	.	6%	.	-1%
COc1ccc(-n2ccnc(NCc3ccccc3OC)c2=O)cc1	-16%	0%[46.1 µM]	.	.	-11%	.	-3.9%	.
N#CCS(=O)(=O)c1ccccc1	9%	.	9%	42%	.	17%	.	.
CC(=O)C1=C(c2ccccc2)OC(N)=C(C#N)C1c1ccccc1C (configuration not stated)	-1%	8%	-15%	-1%	-13%	16%	-12%	19%
CCC(=O)N1CCc2cc(S(=O)(=O)NC(Cc3ccccc3)C(=O)NCc3ccccc3)ccc21 (configuration not stated)	13%	0%[46.1 µM]	.	.	-6%	.	-1.3%	-29%[46.1 µM]
COc1ccccc1C(=O)Nc1cc(C)ccc1NC(=O)c1ccco1	-10%	.	6%	1%	.	22%	.	.
Cc1ccc(OCC(O)CNS(=O)(=O)c2ccccc2C(=O)N2CCCCC2)cc1 (configuration not stated)	18%	?	17%	-7%	?	11%	0.9%	-13%
CCn1c(SCC(=O)O)nnc1-c1cccnc1	-8%	-11%	-6%	-1%	.	0%	.	2%[46.1 µM]
CCc1ccc(CN2CCC(Oc3ccc(C(=O)NCc4ccccn4)cc3)CC2)o1	-11%	?	-26%	9%	.	0%	.	?
COc1ccc2c(c1)C(c1ccc(N(CCCl)CCCl)cc1)=NCC2	?	?	-24%	.	.	.	.	?
CC(=O)Nc1ccc(NC(=O)C2CCN(S(=O)(=O)c3cccc4nonc34)CC2)cc1	.	3%	4%	7%	?	5%	0.3%	-5%
O=C1CN=C(c2ccc(Cl)cc2)c2oc3ccccc3c2N1	-19%	-30%[46.1 µM]	5%	10%	.	1%	.	?
N#Cc1cc2c(nc1SCC(=O)Nc1ccc(OC(F)(F)F)cc1)C1CCN2CC1	-42%	-29%[46.1 µM]	.	.	3%	.	-2.9%	.
Cc1cc(C)cc(OCC(=O)OCC(=O)NCCC2=CCCCC2)c1	-8%	-3%	7%	-21%	22%	3%	-5.7%	3%
O=C(O)CSCc1nc2ccccc2[nH]1	1%	.	-18%	4%	.	2%	.	.
Cc1ccc(Nc2nnc(-c3ccc(C)c(S(=O)(=O)N4CCOCC4)c3)c3ccccc23)c(C)c1	-19%	?	.	.	2%	.	1.2%	.

The results go on:
SMILES	StopGo reporter	Lassa entry inh	RE007 growth inh	NS1 function inh	Cruzain inh noDet	SARS PLpro yeast	Cruzain inh Det	MARV entry inh
Nc1nc(Cl)nc2c1ncn2[C@@H]1O[C@H](CO)[C@H](O)[C@H]1O	.	.	.	0%	-4%	.	3.4%	?
Cc1ccc(N(C(=O)Nc2ccccc2)C2=NCCC2)cc1	-17%	-11%[46.1 µM]	-7%	1%	.	0%	.	26%[46.1 µM]
COc1ccccc1CNC(=O)CCS(=O)(=O)c1ccc2c(c1)CC(C)N2C(=O)C1CC1 (configuration not stated)	-4%&-16%	?	-5%	4%	13%	3%	1.4%	-8%&-8%[46.1 µM]
Cc1ccc(NC(=O)N[C@H](C(=O)O)C(C)C)c(C)c1	-3%	12%	0%	1%	.	0%	.	?
COc1cc(-c2nn3c(-c4cccnc4)nnc3s2)cc(OC)c1OC	10%	4%	-10%	4%	5%	-3%	-6.4%	-21%&-21%
CCCC1C2CN(C(C)=O)CC=C2C(C#N)=C(N)C1(C#N)C#N (configuration not stated)	-30%	-2%	13%	4%	5%	?	-1.0%	25%
Cc1ccc(S(=O)(=O)N(CCCN(C)C)Cc2ccc3c(c2)OCO3)cc1	-8%	.	3%	-1%	.	1%	.	.
COc1ccc(-c2nc3ccccc3n2Cc2ccc(C)cc2)cc1	10%	1%	-9%	3%	11%	.	-3.3%	9%[46.1 µM]
COc1ccccc1C(=O)Nc1ccc(OCc2cc(=O)n3cc(C)sc3n2)cc1	-3%	8%[46.1 µM]	.	.	11%	.	1.3%	10%[46.1 µM]
COCC(=O)N1CCC(Oc2ccc(C(=O)NCc3csc(C(C)C)n3)cc2)CC1	-6%	.	3%	-1%	.	-1%	.	.
CSc1nc(N)nc(SCC(=O)C(C)(C)C)c1C#N	-2%	7%	-8%	-9%	-6%	0%	-4.3%	0%
CCCCCC(=O)NNC1=NCC(Cc2ccccc2)S1 (configuration not stated)	40%[activator]	-24%	20%	.	.	0%	.	-1%[46.1 µM]
Cc1ccc(-c2csc(=S)n2CC(=O)OCC(=O)NCc2ccc(F)cc2)cc1	.	.	.	9%	-3%	-16%	-2.4%	-5%
CCN(CC)c1ccc(NC(=O)CSc2ccsc2[N+](=O)[O-])c(C)c1	-22%	-23%	-8%	12%	-14%	10%	-13%	0%
CCC(=O)N1c2ccccc2CC1C(=O)NCCN1CCN(c2ccccc2F)CC1 (configuration not stated)	-7%	-1%[46.1 µM]	.	.	0%	.	2.0%	.
CC(C)c1nc(CN2CCCCC2)cc(=O)[nH]1	-11%	7%	-9%	2%	.	0%	.	30%[46.1 µM]
O=c1c2c3c(sc2nc2n1N=C(c1cccs1)CS2)CCCC3	48%[activator]	?	1%	-5%	-8%	-4%	2.3%	-2%
C=CCN1C(=O)/C(=C/c2ccc3c(c2)CCCN3CCC)C(=O)NC1=S	32µM*	14%	1%	8%	18%	-8%	-10%	17%
NC(=O)c1nnsc1-c1ccco1	-7%	6%[46.1 µM]	-10%	.	.	.	.	-1%[46.1 µM]
CCN(CC)S(=O)(=O)c1ccc2c(c1)N(CC(=O)NCCCN1CCN(c3ccc(OC)cc3)CC1)C(=O)CO2	-11%	25%[46.1 µM]	.	.	3%	.	-1.3%	.
Oc1ccccc1/C=N/N1CCCCC1	51%[activator]	1%	-1%	.	.	1%	.	11%[46.1 µM]
CCC1(CCC(C)C)SC(N)=NC1=O (configuration not stated)	-13%	?	1%	.	.	.	.	6%
CCCOP(=O)(c1ccc(N(C)C)cc1)C(Nc1ccccc1)c1ccc(C)cc1 (configuration not stated)	?	-16%	4%	4%	.	0%	.	?
COc1ccc(N/N=C2/CCCCC2=O)cc1	54%[activator]	-3%	135%	-44%	-13%	.	-7.9%	-22%
COC(=O)N/N=C/C1=CCC2CC1C2(C)C (configuration not stated)	-18%	-14%	11%	-3%	.	1%	.	-1%[14.2 µM]

The listing continues.
SMILES	StopGo reporter	Lassa entry inh	RE007 growth inh	NS1 function inh	Cruzain inh noDet	SARS PLpro yeast	Cruzain inh Det	MARV entry inh
O=C(NCc1ccco1)c1ccc(COc2ccc(Cl)cc2)cc1	8%	2%	-4%	2%	9%	6%	4.7%	-8%[46.1 µM]
O=C(C1=C(O)C(=O)N(CCN2CCOCC2)C1c1ccc([N+](=O)[O-])cc1)c1cc2ccccc2o1 (configuration not stated)	-15%	.	-1%	-1%	.	-3%	.	.
COCCn1c(-c2ccco2)csc1=Nc1cccnc1	-21%	0%	-11%	6%	0%	-1%	-3.5%	12%
Cc1ccc([N+](=O)[O-])cc1NC(=O)CCSc1ccc(Cl)cc1	?	-4%	-12%	-3%	0%	-8%	-0.1%	?
O=C(CC1SC(=O)N(c2ccccc2)C1=O)Nc1cccc2ccccc12 (configuration not stated)	-14%	-1%	1%	18%	.	2%	.	-12%[46.1 µM]
O=C(NCCCc1ccccc1)C1CCN(c2nnc(-n3cccc3)s2)CC1	18%	.	-6%	-10%	-7%	0%	-6.5%	.
Cc1cc(C)cc(NC(=O)c2ccc(CNc3c(N4CCOCC4)c(=O)c3=O)cc2)c1	4%	.	2%	7%	18%	0%	-5.3%	.
Cc1ccc(C)c(CN2CCSCC2)c1	-5%	4%	1%	-5%	.	3%	.	?
CNC(=O)/C(C#N)=C1\SC(Cc2ccc(F)cc2)C(=O)N1c1ccccc1C (configuration not stated)	-18%	.	0%	5%	.	0%	.	.
CCNC(=O)NC1(C(=O)Nc2ccc3c(c2)CCC3)CCCCC1	9%	6%	22%	-2%	4%	-5%	-1.2%	0%[46.1 µM]
Cc1cc(C)c(C#N)c(SCc2cc3c(cc2Cl)OCO3)n1	.	-24%	13%	-3%	1%	3%	-1.0%	?
COc1cc2c(cc1OC)-c1c(OC)c(OC)cc3ccnc(c13)C2=O	?	?	5%	5%	6%&11%	-3%	-1.8%&-4.8%	?
CCCc1cc(=O)[nH]c(SCC(=O)N2CCN(c3ccccc3)CC2)n1	-7%	0%	12%	9%	-9%&-10%	.	-3.3%&-13%	?

Rows are unselected; any-hit rate near 4.5%.
